Compound activity (PubChem)
Calb biofilm kill – clotrimazole potentiators killing C. albicans biofilm, primary screen, 4-compound mixtures; C. albicans biofilm persisters + clotrimazole, fluorescence viability; primary screen in compound mixtures of four per well; 120,000 tested, 0.02% active; AID 1242, 2008; inhibition, % at 7.6 µM;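 active means inhibition above 30.3% in the primary screen of four-compound pools, then above 30% when the compound was retested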;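 further: compounds exposed to preformed 24 h biofilms for 48 h; the number belongs to the whole pool; some results filed as inactive read as strong as hits; inactives centre near 12; 0% = biofilm with clotrimazole alone and 100% = kill control; retested singly at about 60 µM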
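Test system: C. albicans CAF4-2 wild-type biofilms; buffer or medium: RPMI/MOPS medium, pH 7.0; schedule: 24 h biofilm formation, then 48 h compound exposure, 37 °C; detection: Alamar Blue fluorescence; measure: percent inhibition of biofilm viability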
The depositor's hits bear a star. This is a subset; the hit share may differ from the screen's.

SMILES	Calb biofilm kill
Cc1cc(C)c2nc(SCC(=O)NCCN3C(=O)CSC3=O)cc(C)c2c1	16.7
CC1(CC(=O)N/N=C/c2cc([N+](=O)[O-])c(O)cc2O)OCCO1	11.2
CCOC(=O)C(Sc1cc(-c2ccccc2)nc2ncnn12)C(C)=O (stereo not drawn)	11.3
Cc1nc(N2CCN(c3ccccn3)CC2)c2c(C)c(C(=O)Nc3ccc(F)cc3)sc2n1	12.7
Cc1noc(-c2ccc(C(F)(F)F)cc2)c1NC(=O)Nc1ccc(Cl)cc1	16.2
CC(=O)C1C(=O)CC(c2ccc(Cl)cc2)CC1=O (stereo not drawn)	18.1
CCC(CC)c1nnc(NC(=O)c2ccc([N+](=O)[O-])cc2)s1	12.6
CCCc1cc(O)c2c(C)cc(=O)oc2c1	9.4
COc1cc(/C=N/NC(=O)Cn2cnc3c2c(=O)n(C)c(=O)n3C)ccc1O	12.7
COc1cc(/C=C/C(=O)OCC(=O)Nc2ccc(S(N)(=O)=O)cc2)ccc1O	16.0
CCN(c1ccc(OCC(=O)OCC(=O)c2c(N)n(C)c(=O)n(C)c2=O)cc1)S(=O)(=O)c1ccccc1	15.4
Cc1ccsc1/C=N/N1CCN(Cc2ccccc2)CC1	1.5

Four entries from above, field by field.
> COc1cc(/C=N/NC(=O)Cn2cnc3c2c(=O)n(C)c(=O)n3C)ccc1O
  Calb biofilm kill: 12.7

> COc1cc(/C=C/C(=O)OCC(=O)Nc2ccc(S(N)(=O)=O)cc2)ccc1O
  Calb biofilm kill: 16.0

> CCN(c1ccc(OCC(=O)OCC(=O)c2c(N)n(C)c(=O)n(C)c2=O)cc1)S(=O)(=O)c1ccccc1
  Calb biofilm kill: 15.4

> Cc1ccsc1/C=N/N1CCN(Cc2ccccc2)CC1
  Calb biofilm kill: 1.5

Other entries
SMILES	Calb biofilm kill
CC1(C)CC2(C)OCCN2C(=S)N1 (stereo not drawn)	3.4
CC1CCCC(NC(=O)C2CCC(CNc3c(N4CCCCC4)c(=O)c3=O)CC2)C1C (stereo not drawn)	12.4
O=C(COc1ccccc1)Nc1ccc(CN2CCCCC2)cc1	3.9
CCc1nc(SCC(=O)NCCc2ccccc2)c2c(=O)n(C)c(=O)n(C)c2n1	1.1
O=c1cc(CO)oc(C(Nc2cccc(C(F)(F)F)c2)c2ccccn2)c1O (stereo not drawn)	13.8
COC(=O)c1ccc(/C=N/N2CCN(Cc3ccc(C)cc3C)CC2)cc1	8.9
CC1=C(C(=O)c2ccccc2)C(c2ccc(O)cc2)NC(=S)N1 (stereo not drawn)	18.7
COc1ccc(CC(=O)Nc2cccc(S(=O)(=O)N3CCCCCC3)c2)cc1OC	13.2
CN(CCS(=O)(=O)c1ccc(Cl)cc1)Cc1cccnc1	17.5
CC(=O)c1cccc(NC(=O)CCS(=O)(=O)c2ccc(Br)s2)c1	9.6
Cc1cccc(NC(=O)CSCc2nc3c(nnn3Cc3ccc(F)cc3)c(=O)[nH]2)c1C	22.6
COc1cc(C)c(C(C)C)cc1S(=O)(=O)n1ccnc1	9.8
Cc1cc(NC(=O)COC(=O)c2ccccc2S(=O)(=O)N(C)c2ccccc2)no1	8.6
CCN(CC)c1ccc(/C=c2\sc3nc4ccccc4n3c2=O)c(O)c1	23.3
COc1cccc(NC(=O)c2c(C)cc(C)cc2CC(C)(C)C(=O)O)c1	12.5
CC1CCN(c2ccc(NC(=O)c3ccccc3[N+](=O)[O-])cc2)CC1	13.5
CCCN1CCC(NC(=O)Nc2cc(Cl)ccc2OC)CC1	-4.8
O=C(COC(=O)c1ccc(-c2ccccc2)cc1)Nc1ccccc1-c1ccccc1	-0.1
CC(=O)Cc1nsc(Nc2cccc(C)c2)n1	7.0
O=C(Nc1c2c(nc3ccccc13)CCCC2)c1ccccc1Cl	4.7
COC(=O)c1cc(-c2ccccc2)sc1NC(=O)c1cc(C)on1	11.5
O=C(O)c1cccc(N2C(=O)c3ccc4c5c(ccc(c35)C2=O)C(=O)N(c2cccc(C(=O)O)c2)C4=O)c1	18.0
CCC[N+](CC#CCO)(CC#Cc1ccccc1)CCC	21.0
CS(=O)(=O)c1ccc2nc(NC(=O)c3ccc(S(=O)(=O)NCC4CCCO4)cc3)sc2c1 (stereo not drawn)	27.2
O=C(COc1ccc2ccccc2c1)NNC(=O)c1cccs1	-3.9
CC(=O)Oc1ccc2occ(/C=N/c3cc(=O)[nH]c(=S)[nH]3)c(=O)c2c1	11.8
Cn1c(Cc2cccc3ccccc23)nnc1SCc1ccc([N+](=O)[O-])cc1	-4.2
COc1ccc(/C=C/c2nnc(NC(=O)COc3ccc(C)cc3)s2)cc1	11.7
CC1(C)CC(=O)C=C(NC2=CC3OC(c4ccccc4)OCC3OC2=O)C1 (stereo not drawn)	7.9
Cc1cccc(C(=O)N2CCC(=O)N(C(COCc3ccccc3)Cc3ccccc3)CC2)c1 (stereo not drawn)	17.2
CN(C)c1ccc(/C=N/NC(=O)c2ccc(Cn3cc(Br)cn3)o2)cc1	8.0
CCOC(=O)c1nnn(-c2ccc(OC)cc2)c1N	12.7
O=C(NC(N1CCOCC1)C(Cl)(Cl)Cl)c1cc([N+](=O)[O-])cc([N+](=O)[O-])c1 (stereo not drawn)	11.2
CCOC(=O)N1CCC(N(CCN(C)C)C(=S)Nc2cc(C)ccc2C)CC1	22.3
O=C(NCC1CCCO1)C1CCN(S(=O)(=O)c2ccccc2)CC1 (stereo not drawn)	16.2
COc1ccc(/C=C2\CCc3ccccc3C2=O)cc1CN1CCOCC1	21.1
CCCc1c(O)nc(SCC(=O)O)[nH]c1=O	-0.3
CCCN(C(=O)c1ccco1)c1nnc(-c2ccccc2C)s1	17.3
Cc1nc2ccccc2n1CC(=O)NN	13.2
O=C1CC(c2nc3ccccc3[nH]2)CN1c1cccc(C(F)(F)F)c1 (stereo not drawn)	3.9
CC1=NN(Cc2ccccc2)C(=O)C1C(c1ccncc1)C(C#N)C#N (stereo not drawn)	15.8
COc1ccc(NC(=O)c2ccc(S(=O)(=O)N3CCOCC3)o2)cc1	16.5
COC(c1ccccc1)c1nnc(CCC(=O)NCc2cccc(-n3cccn3)c2)o1 (stereo not drawn)	-0.3
C=C1N(c2cccc(Cl)c2)C(=O)OC1(C)C	37.4
COc1ccc2nc(C)cc(SCC(=O)OC(C)C)c2c1	15.2
NNC(=O)CNS(=O)(=O)c1ccc([N+](=O)[O-])cc1	5.7
CC(C)NS(=O)(=O)c1ccc2c3c(cccc13)CC2	-4.6
Cn1c2ccccc2n2c(=O)c(=O)n(CC(=O)N3CCCc4ccccc43)nc12	15.4
Cc1cc(C)c2[nH]c(=O)c(CN(Cc3cccs3)C(=S)NCC3CCCO3)cc2c1 (stereo not drawn)	15.7
Cc1cc(S(=O)(=O)NC(C)C)ccc1OCC(=O)Nc1ccc2c(c1)OCCO2	26.7
O=S(=O)(Nc1ccc(N2CCCCC2)cc1)c1ccccc1	16.3
Cc1[nH]c2ccccc2c1C(=O)CSc1ccccn1	22.8
O=C(COC(=O)Cc1ccccc1F)Nc1cccc(S(=O)(=O)NC2=NCCCCC2)c1	17.5
CCc1cccc2c(C(=O)CSc3nncn3C)c[nH]c12	17.1
CCN1C(=O)/C(=C\N2CCN(C(=O)c3ccco3)CC2)SC1=S	14.4
CCCCNc1nc2cccnc2s1	14.3
Cc1cc(NC(=O)/C=C/c2ccc(Cl)cc2)no1	10.9
COc1cc(-c2nc(CN3CCCCC3CCNC(C)=O)c(C)o2)ccc1F (stereo not drawn)	14.6
Cc1ccc(CNC(=O)C2CCN(S(=O)(=O)c3ccc4c(c3)OCCCO4)CC2)cc1	4.8
CCOc1ccc(C2C3=C(CCCC3=O)Nc3ccc4ncccc4c32)cc1 (stereo not drawn)	15.0

The list goes on:
SMILES	Calb biofilm kill
COc1ccc(-c2csc(N3C(=O)C4C5c6ccccc6C(c6ccccc65)C4C3=O)n2)cc1 (stereo not drawn)	6.2
CCN(CC)NC(=O)Nc1ccccc1	19.1
C=C(C)Cn1c(CCn2c3ccccc3c3ccccc32)n[nH]c1=S	11.3
CCOc1ccccc1NC(=O)COC(=O)c1cccc(-c2ccc(OC(C)=O)cc2)c1	9.6
Cc1ccc(S(=O)(=O)CCC(=O)NCc2ccccc2)cc1	6.7
CC1CN(C(=S)SCCN2Cc3ccccc3C2=O)CC(C)O1 (stereo not drawn)	15.9
COc1ccc(Cc2noc(CN3CCNC(=O)CC3)n2)cc1OC	1.8
CCCCSc1ncc(C(=O)OCC)c(N)n1	4.8
Cc1nn(-c2cccc(Cl)c2)c(Cl)c1/C=N/NC(=O)c1cccnc1	14.7
COC(=O)Cc1ccc(NC(=S)NC(C)(C)C)cc1	18.4
COc1ccc(C(=O)c2cc3c(cc2[N+](=O)[O-])OCCO3)cc1	12.2
O=C(N/N=C/c1cccs1)c1ccc2ncccc2c1	12.3

Structures shown so far with a CF3 group, in the order listed:
SMILES	Calb biofilm kill
Cc1noc(-c2ccc(C(F)(F)F)cc2)c1NC(=O)Nc1ccc(Cl)cc1	16.2
O=c1cc(CO)oc(C(Nc2cccc(C(F)(F)F)c2)c2ccccn2)c1O (stereo not drawn)	13.8
O=C1CC(c2nc3ccccc3[nH]2)CN1c1cccc(C(F)(F)F)c1 (stereo not drawn)	3.9

Continuation.
SMILES	Calb biofilm kill
Fc1ccc(N/N=C(/c2ccccc2)c2ccccn2)cc1	5.2
c1ccc2sc(NC3=NCN(CCN4CCOCC4)CN3)nc2c1	22.6
C/C(=N\Nc1ccc(C#N)cc1[N+](=O)[O-])c1ccc(C)o1	22.1
CNC(=S)Nc1cc(C(F)(F)F)ccc1Cl	7.6
CCOc1ccc(Nc2nnc(Cc3ccc(OC)cc3)c(=O)[nH]2)cc1	8.6
NNc1nc(-c2ccccc2)cc(-c2ccccc2)n1	7.4
COc1ccccc1NC(=O)c1cnc2c(-c3ccccc3)c(C)nn2c1C	24.4
O=S1(=O)CCN(Cc2ccc(Cl)c(C(F)(F)F)c2)CC1	8.6
O=Cc1sc([O-])nc1-[n+]1ccc2ccccc2c1	27.1
CCC(CC)c1nnc(NC(=O)c2ccc(N3CCCCC3)c([N+](=O)[O-])c2)s1	11.3
COc1cccc(NC(=O)CC2C(=O)NCCN2C(=S)Nc2ccc(F)cc2)c1 (stereo not drawn)	3.3
Cc1c(OCC(=O)N(C)C)ccc2c3c(c(=O)oc12)CCCCC3	7.0

The closing 2 entries of the section above are carried over, then new ones follow:
SMILES	Calb biofilm kill
COc1cccc(NC(=O)CC2C(=O)NCCN2C(=S)Nc2ccc(F)cc2)c1 (stereo not drawn)	3.3
Cc1c(OCC(=O)N(C)C)ccc2c3c(c(=O)oc12)CCCCC3	7.0
Cn1ccnc1C(O)(c1ccccc1)c1nccn1C	0.4
CC1(C)CC2CC(C)(CN2C(=O)c2ccc([N+](=O)[O-])cc2[N+](=O)[O-])C1 (stereo not drawn)	19.8
Cc1cc(C)c(S(C)(=O)=O)c(N(C)NC(=O)c2c(F)cccc2F)n1	4.8
COc1cc(/C=N/OCC(=O)NC2CCCCC2C)ccc1OCc1ccc(Cl)cc1 (stereo not drawn)	6.0
CC(CCc1ccccc1)NCC#N (stereo not drawn)	8.1
Nc1c(N(CCO)C(=O)C2CCCCC2)c(=O)[nH]c(=O)n1Cc1ccccc1	4.1
COc1ccc(Cl)cc1NC(=O)CCN1CCOCC1	15.8
CC1(C)CC(=O)CC(=O)/C1=N\Nc1c(Cl)cc(Cl)cc1Cl	18.4
CC(C)CN(CC(C)C)C(=O)COc1ccccc1C(N)=O	15.7
CCCCC(=O)NC(=S)Nc1c(C)cc(Br)cc1C	19.6
Cc1oc(-c2cccs2)nc1CN1CCN(C(C)C)C(CCO)C1 (stereo not drawn)	12.1
CCCNC(=O)Nc1cc(S(=O)(=O)CC)ccc1O	15.5
Cc1cc(CNC(=O)CC2C(=O)NCCN2Cc2ccccc2C(F)(F)F)nn1C (stereo not drawn)	18.6
Nc1cc(=O)[nH]c(SCC(=O)Nc2nnc(-c3ccccc3)s2)n1	4.8
COCCNC(=O)/C(C#N)=C/c1ccc(OC(=O)c2cccs2)c(OC)c1	4.8
CCN(CC(=O)Nc1ccccc1OC)C(=O)COc1ccc2ccccc2c1	17.8
OCC(O)C1OC(Nc2ccc(Br)cc2)C(O)C1O (stereo not drawn)	13.2
CC1Cc2ccccc2N1C(=O)Cn1cnc2ccccc21 (stereo not drawn)	16.7
CC(C)(C)c1nnc(SCC(=O)c2ccccc2)n(N)c1=O	18.1
Cc1ccc(-n2c(COc3ccccc3)n[nH]c2=S)cc1	8.7
O=[N+]([O-])c1ccccc1S(=O)(=O)n1cnc2ccccc21	-2.6
CCCCC1=NN2CCS(=O)(=O)N=C2S1	23.9
O=C1NC(=O)/C(=C\c2ccc(OCc3cccc([N+](=O)[O-])c3)cc2)N1	6.2
O=C1CC(N2CCN(c3ccccc3O)CC2)C(=O)N1Cc1ccccc1 (stereo not drawn)	8.7
O=C(NNC(=S)Nc1ccccc1)NNC(=S)Nc1ccccc1	12.2
Cc1ccc2nc(SCC(=O)Nc3ccc(F)cc3F)[nH]c2c1	11.6
COCC(=O)OCC(=O)Nc1cc(C)c(C)cc1[N+](=O)[O-]	17.1
CC1C=CCC2C(=O)N(c3ccc(OC(=O)c4ccco4)cc3)C(=O)C12 (stereo not drawn)	11.4
O=c1oc2ccccc2c(NCc2ccccc2F)c1[N+](=O)[O-]	14.1
O=C(O)C1CCc2sc3[nH]c(=S)n(-c4ccccc4)c(=O)c3c21 (stereo not drawn)	18.5
Cn1nc([N+](=O)[O-])c(C(C#N)c2ccccn2)c(Cl)c1=O (stereo not drawn)	-2.8
N#C/C(=N\Nc1ccc(S(=O)(=O)N2CCOCC2)cc1)C(N)=S	12.1
Cc1csc(=Nc2ccccc2)n1CCCN1CCCC1=O	17.1
